From PubChem
Vaccinia inh – Vaccinia orthopox stage-specific inhibition; activity change (mCherry), % (no concentration beside the values); 89,000 tested, 0.01% active; Vaccinia-infected cells, mCherry/Venus stage reporter fluorescence; hits give low values; some inactives read as strong as hits;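 active = mCherry past -33% and 40 or more points under the early reporter, replicates agreeing; inconclusive = past -33% without that gap or agreement; tested in A549 cells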;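 note: scaled between vehicle wells and reference inhibitor wells; 23 nL library stock went into each well; one replicate is shown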
Vaccinia inh Venus – recorded beside Vaccinia inh, whose call it bears; activity change (Venus), %; measured here: Venus reporter, other viral stage;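 negative = less Venus signal; first of two replicates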
The depositor's hits bear a star; ? = inconclusive; / = not tested or not shown; & = joins results of further samples. An excerpt, so the mix of outcomes need not match the whole.

SMILES	Vaccinia inh	Vaccinia inh Venus
CO[C@H]1CN(C)C(=O)c2cc(NC(=O)c3nc4ccccc4s3)ccc2OC[C@H](C)N(Cc2cncnc2)C[C@H]1C	-17	-8
Cc1noc(C)c1S(=O)(=O)Nc1ccc2c(c1)C(=O)N([C@@H](C)CO)C[C@@H](C)[C@H](CN(C)Cc1ccc(C(=O)O)cc1)O2	10	15
C[C@H](CO)N1C[C@H](C)[C@H](CN(C)S(=O)(=O)c2cn(C)cn2)Oc2ccc(NC(=O)Nc3ccc4c(c3)OCO4)cc2C1=O	35	18
COCC(=O)N1C[C@H](C)[C@@H](OC)CN(C)C(=O)c2cc(NC(=O)c3cnccn3)ccc2OC[C@H]1C	6	5
CN1C(=O)c2cc(NC(=O)C3CCCC3)ccc2OC[C@H]2O[C@@H](CC(=O)NCC3CC3)CC[C@@H]21	21	23
CN1CCN(C(=O)C[C@H]2CC[C@H]3[C@@H](COC[C@H](O)CN3C(=O)Nc3ccc(F)cc3)O2)CC1	4	5
CC(=O)N(C)C[C@H]1Oc2cc(C#Cc3ccccn3)ccc2S(=O)(=O)N([C@H](C)CO)C[C@H]1C	19	12
C[C@@H]1CN([C@H](C)CO)S(=O)(=O)c2ccc(C3=CCCC3)cc2O[C@H]1CN(C)Cc1cccnc1	6	-1
COc1ccc(NC(=O)Nc2cccc3c2O[C@H](CN(C)S(=O)(=O)c2ccc(C)cc2)[C@@H](C)CN([C@@H](C)CO)C3=O)cc1	8	8
CC(C)CC#Cc1ccc2c(c1)O[C@@H](CN(C)C(=O)Nc1ccccc1)[C@@H](C)CN([C@@H](C)CO)S2(=O)=O	?	/
CN(C)CC(=O)Nc1ccc2c(c1)[C@H]1C[C@@H](CC(=O)N3CCN(C)CC3)O[C@@H](CO)[C@H]1O2	-6	-3
CCS(=O)(=O)N(C)C[C@@H]1N[C@H](CO)[C@@H]1c1ccc(-c2ccccc2F)cc1	10	21
C[C@H](CO)N1C[C@H](C)[C@H](CN(C)Cc2ccc3c(c2)OCO3)Oc2cc(C#CCN(C)C)ccc2S1(=O)=O	-13	-1
CC(C)CC#Cc1cnc2c(c1)C(=O)N([C@H](C)CO)C[C@H](C)[C@@H](CN(C)Cc1ccc(C(=O)O)cc1)O2	26	9
COc1ccc(NC(=O)Nc2cccc3c2O[C@@H](CN(C)C(=O)NC(C)C)[C@H](C)CN([C@@H](C)CO)C3=O)cc1	9	8
C[C@H]1CN([C@@H](C)CO)C(=O)c2cccc(NC(=O)c3ccncc3)c2O[C@@H]1CN(C)Cc1ccc(-c2ccccc2)cc1	-15	-10
O=C(C[C@H]1C=C[C@@H](NC(=O)C2CCC2)[C@@H](CO)O1)NCc1ccncc1	8	0
COc1cccc(S(=O)(=O)Nc2ccc3c(c2)[C@@H]2C[C@@H](CC(=O)O)O[C@H](CO)[C@@H]2O3)c1	9	12
CCNC(=O)Nc1ccc2c(c1)C(=O)N(C)[C@@H]1CC[C@H](CC(=O)Nc3ccccc3)O[C@H]1CO2	-2	5
COc1ccc(CN(C)C[C@H]2Oc3c(NC(=O)c4cnccn4)cccc3C(=O)N([C@H](C)CO)C[C@@H]2C)cc1	0	1
CC(C)NC(=O)Nc1ccc2c(c1)CC(=O)N([C@@H](C)CO)C[C@H](C)[C@H](CN(C)C(=O)Nc1ccc3c(c1)OCO3)O2	5	4
O=C(Cc1ccccc1)N1CC2(C1)[C@@H](c1ccccc1)[C@@H](CO)N2C(=O)c1cccnc1	26	15
O=C(NCC[C@H]1CC[C@@H](NS(=O)(=O)c2cccc(F)c2)[C@@H](CO)O1)Nc1cc(F)ccc1F	-14	-6
COc1ccccc1C(=O)Nc1ccc2c(c1)OC[C@@H](C)N(C)C[C@@H](C)[C@@H](OC)CN(C)C2=O	0	9
C[C@@H]1CN([C@H](C)CO)C(=O)c2cc(C#CC(C)(C)O)cnc2O[C@@H]1CN(C)C(=O)C1CC1	7&16	-4&7

Complete entries as entered above. Order of values: Vaccinia inh	Vaccinia inh Venus
`CN1C(=O)c2cc(NC(=O)C3CCCC3)ccc2OC[C@H]2O[C@@H](CC(=O)NCC3CC3)CC[C@@H]21` is listed with 21	23
`O=C(Cc1ccccc1)N1CC2(C1)[C@@H](c1ccccc1)[C@@H](CO)N2C(=O)c1cccnc1` is listed with 26	15
`CCNC(=O)Nc1ccc2c(c1)C(=O)N(C)[C@@H]1CC[C@H](CC(=O)Nc3ccccc3)O[C@H]1CO2` is listed with -2	5
`C[C@H](CO)N1C[C@H](C)[C@H](CN(C)S(=O)(=O)c2cn(C)cn2)Oc2ccc(NC(=O)Nc3ccc4c(c3)OCO4)cc2C1=O` is listed with 35	18
`CN1CCN(C(=O)C[C@H]2CC[C@H]3[C@@H](COC[C@H](O)CN3C(=O)Nc3ccc(F)cc3)O2)CC1` is listed with 4	5

Next entries follow.
SMILES	Vaccinia inh	Vaccinia inh Venus
C[C@@H]1CCCCO[C@H](CN(C)C(=O)Cc2ccccc2)[C@@H](C)CN([C@H](C)CO)C(=O)c2cc(NS(=O)(=O)c3ccc(F)cc3)ccc2O1	-2	-14
COc1ccc2c3c([nH]c2c1)[C@@H](CO)N(C(C)=O)CC31CCN(C(=O)c2ccc3c(c2)OCO3)CC1	4	1
O=C(C[C@H]1CC[C@@H](NC(=O)C2CC2)[C@H](CO)O1)Nc1nccs1	1	3
C[C@H]1CN([C@@H](C)CO)S(=O)(=O)c2ccc(C3=CCCC3)cc2O[C@H]1CN(C)Cc1ccccc1	?	/
Cc1cccc(-c2ccc([C@H]3[C@@H](CO)N4CCCCN(C(=O)c5ccc6c(c5)OCO6)C[C@@H]34)cc2)c1	?	/
C[C@@H]1CN([C@H](C)CO)C(=O)c2cccc(NC(=O)Nc3ccccc3)c2O[C@H]1CN(C)C(=O)Nc1ccc(F)cc1	-4	-4
CC(C)NC(=O)Nc1ccc2c(c1)C(=O)N([C@H](C)CO)C[C@H](C)[C@@H](CN(C)Cc1ccc(C(F)(F)F)cc1)OCCCC[C@@H](C)O2	-20	-13
C[C@H](CO)N1C[C@H](C)[C@@H](CN(C)C(=O)Nc2ccc(F)cc2)Oc2c(NC(=O)Nc3ccccc3)cccc2C1=O	-1	5
O=C(C[C@@H]1CC[C@H](NC(=O)Nc2cccc(F)c2)[C@@H](CO)O1)NCC1CCCCC1	-6	-5
CO[C@H]1CC[C@@H]2CCN(C)C(=O)C[C@H](c3ccccc3)CN(C)C(=O)c3cccc(C#N)c3OC[C@@H]1O2	7	5
C[C@@H]1CCCCO[C@@H](CN(C)CC2CCCCC2)[C@@H](C)CN([C@@H](C)CO)C(=O)c2cc(NS(=O)(=O)c3cccs3)ccc2O1	?	/
C[C@@H]1CCCCO[C@H](CN(C)S(=O)(=O)c2ccc(F)cc2)[C@@H](C)CN([C@H](C)CO)C(=O)c2cc(NC(=O)Nc3ccc(C(F)(F)F)cc3)ccc2O1	10	13
CCCC#Cc1ccc2c(c1)O[C@H](CN(C)C(=O)c1ccccn1)[C@@H](C)CN([C@@H](C)CO)S2(=O)=O	-17	-22
C/C=C/c1cnc2c(c1)C(=O)N([C@@H](C)CO)C[C@@H](C)[C@H](CN(C)C(=O)CN1CCOCC1)O2	24	22
CN(C)CC(=O)Nc1ccc2c(c1)[C@H]1C[C@@H](CC(=O)NCc3ccncc3)O[C@H](CO)[C@H]1O2	8	-2
CC(C)CC#Cc1cnc2c(c1)C(=O)N([C@@H](C)CO)C[C@@H](C)[C@@H](CN(C)Cc1cncnc1)O2	-6	-4
O=C(O)C[C@H]1CC[C@H](NC(=O)CCN2CCCCC2)[C@@H](CO)O1	5	1
CN(C)c1ccc2c(c1)[C@H]1C[C@H](CC(=O)NCCN3CCCCC3)O[C@@H](CO)[C@H]1O2	7	15
O=C(N[C@@H]1C=C[C@H](CC(=O)N2CCCCC2)O[C@H]1CO)c1ccccn1	-2	7
C[C@H]1CN([C@@H](C)CO)C(=O)c2cc(-c3ccccc3)cnc2O[C@@H]1CN(C)C(=O)C1CCCCC1	-12	-11
CNC[C@H]1OCCCC[C@@H](C)Oc2ccc(NS(=O)(=O)c3cccs3)cc2C(=O)N([C@H](C)CO)C[C@H]1C	11	6
C[C@H](CO)N1C[C@H](C)[C@@H](CN(C)S(=O)(=O)c2ccc(F)cc2)Oc2c(NC(=O)C3CC3)cccc2C1=O	3	8
COc1cccc(-c2cnc3c(c2)C(=O)N([C@H](C)CO)C[C@H](C)[C@H](CN(C)Cc2ccc4c(c2)OCO4)O3)c1	-4	-4
C[C@@H]1CN([C@H](C)CO)C(=O)Cc2cc(NC(=O)Cc3cn(C)c4ccccc34)ccc2O[C@@H]1CN(C)S(C)(=O)=O	18	5
COc1cccc(S(=O)(=O)N[C@H]2CC[C@@H](CCN)O[C@@H]2CO)c1	15	10

Three structures out of the list, ordered by heavy-atom count, low to high.
SMILES	Vaccinia inh	Vaccinia inh Venus
O=C(C[C@@H]1CC[C@H](NC(=O)Nc2cccc(F)c2)[C@@H](CO)O1)NCC1CCCCC1	-6	-5
CN(C)CC(=O)Nc1ccc2c(c1)[C@H]1C[C@@H](CC(=O)NCc3ccncc3)O[C@H](CO)[C@H]1O2	8	-2
COc1cccc(-c2cnc3c(c2)C(=O)N([C@H](C)CO)C[C@H](C)[C@H](CN(C)Cc2ccc4c(c2)OCO4)O3)c1	-4	-4

Additional records follow.
SMILES	Vaccinia inh	Vaccinia inh Venus
Cc1noc(C)c1S(=O)(=O)N(C)C[C@@H]1OCCCC[C@@H](C)Oc2ccc(NC(=O)Cc3ccccc3)cc2C(=O)N([C@@H](C)CO)C[C@@H]1C	8	-6
C[C@@H]1CN([C@H](C)CO)C(=O)Cc2cc(NC(=O)c3ccncc3)ccc2O[C@@H]1CN(C)S(=O)(=O)c1cn(C)cn1	-1	-2
Cc1noc(C)c1NC(=O)N(C)C[C@@H]1Oc2ccc(NS(=O)(=O)c3ccc(F)cc3)cc2C(=O)N([C@@H](C)CO)C[C@H]1C	4	1
Cc1ccccc1S(=O)(=O)N1[C@H](C#N)[C@H](c2ccc(C#CC3CCCCC3)cc2)[C@H]1CO	-27	-23
Cc1noc(C)c1NC(=O)N[C@@H]1CC[C@H](CC(=O)N2CCCCC2)O[C@H]1CO	-4	-12
COC(=O)C[C@@H]1C[C@@H]2c3cc(NC(=O)C4CCC4)ccc3O[C@@H]2[C@@H](CO)O1	11	13
COc1ccc(CN(C)C[C@H]2Oc3ccc(NC(=O)NC4CCCCC4)cc3C(=O)N([C@H](C)CO)C[C@@H]2C)cc1	11	8
Cc1ccc(S(=O)(=O)Nc2ccc3c(c2)C(=O)N([C@@H](C)CO)C[C@@H](C)[C@H](CN(C)C(=O)CCCN(C)C)OCCCC[C@@H](C)O3)cc1	10	-8
O=C(Cc1ccccc1)N1C[C@@H]2[C@H](c3ccccc31)[C@H](CO)N2C(=O)Cc1ccccc1	6	9
CC(C)NC(=O)N1CC(=O)N2[C@@H](CO)[C@H](c3ccc(C#CCN(C)C)cc3)[C@@H]2C1	9	8
O=C(C[C@@H]1CC[C@H]2[C@@H](COC[C@@H](O)CN2Cc2ccc3c(c2)OCO3)O1)Nc1ccccc1	-14	-8
C[C@H]1CN([C@@H](C)CO)C(=O)c2cccc(NC(=O)Nc3ccc(C(F)(F)F)cc3)c2O[C@H]1CN(C)C(=O)Nc1ccc(C(F)(F)F)cc1	?	/
O=C1CN(S(=O)(=O)Cc2ccccc2)C[C@H]2[C@@H](c3ccc(C#CC4CC4)cc3)[C@H](CO)N12	-23	-18
CC(C)C[C@H]1COCn2nncc2CC[C@H](C)C(=O)N1	2	6
C[C@@H]1CCCCO[C@H](CN(C)C(=O)Nc2ccc(C(F)(F)F)cc2)[C@@H](C)CN([C@H](C)CO)C(=O)c2cc(NS(=O)(=O)c3cccs3)ccc2O1	-9	-11
COc1cccc(-c2ccc([C@@H]3[C@H]4CN(S(=O)(=O)c5cccs5)CCCCN4[C@H]3CO)cc2)c1	7	2
COc1ccc(S(=O)(=O)N(C)C[C@H]2OCCCC[C@@H](C)Oc3ccc(NC(=O)Nc4ccc(C(F)(F)F)cc4)cc3C(=O)N([C@@H](C)CO)C[C@H]2C)cc1	-18	-1
C[C@H](CO)N1C[C@H](C)[C@H](CN(C)CC2CCCC2)Oc2ncc(-c3ccc(F)cc3)cc2C1=O	-33	-25
C[C@H](O)C#Cc1ccc2c(c1)O[C@@H](CN(C)C(=O)c1ccccc1)[C@@H](C)CN([C@@H](C)CO)S2(=O)=O	1	-4
C[C@@H]1CN([C@H](C)CO)C(=O)c2cc(NC(=O)c3ccncc3)ccc2O[C@H]1CN(C)S(=O)(=O)c1ccc(F)cc1	2	1
C[C@H](CO)N1C[C@H](C)[C@H](CN(C)C(=O)Nc2ccccc2)Oc2c(NS(C)(=O)=O)cccc2C1=O	12	4
O=C(Nc1ccccc1)[C@@H]1[C@@H](CO)[C@@H]2Cn3c(cccc3=O)[C@@H]2N1Cc1ccccc1Cl	7	12
CNC[C@H]1Oc2ccc(NS(=O)(=O)c3ccc(F)cc3)cc2CC(=O)N([C@@H](C)CO)C[C@H]1C	7	5
CO[C@@H]1CN(C)C(=O)c2cc(NS(=O)(=O)CC(F)(F)F)ccc2OC[C@H](C)NC[C@@H]1C	8	8
C[C@@H]1CN([C@H](C)CO)C(=O)c2cc(N(C)C)ccc2O[C@@H]1CN(C)C(=O)Nc1ccc(F)cc1	10	16
The list goes on:
SMILES	Vaccinia inh	Vaccinia inh Venus
O=C(Nc1ccccc1)N1CC(=O)N2[C@H](CO)[C@H](c3ccc(C#CC4CCCC4)cc3)[C@H]2C1	?	/
CN(C)C(=O)C[C@H]1CC[C@H]2[C@H](COc3ccc(NC(=O)C4CCOCC4)cc3C(=O)N2C)O1	18	18
COc1ccc(S(=O)(=O)N[C@H]2C=C[C@@H](CC(=O)NCCc3ccccc3)O[C@H]2CO)cc1	3	4
COc1ccc(S(=O)(=O)Nc2cccc3c2O[C@@H](CN(C)Cc2ccc(-c4ccccc4)cc2)[C@@H](C)CN([C@H](C)CO)C3=O)cc1	-13	-7
CN1C(=O)c2cc(NC(=O)NC3CCCC3)ccc2OC[C@H]2O[C@H](CC(=O)O)CC[C@H]21	-14	-8
C[C@H](O)C#Cc1cnc2c(c1)C(=O)N([C@@H](C)CO)C[C@H](C)[C@@H](CN(C)C(=O)CN1CCOCC1)O2	5	7
